Screening data: PubChem BioAssay, several laboratories
MLL AF4-AF9 inh – MLL-AF4/AF9 protein interaction inhibition. P42568. AlphaScreen, biotin-AF4 peptide binding to FLAG-AF9. actives 0.47% (n = 350,000). inhibition, % at 10 µM;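 active = every replicate reaching a set inhibition limit, whatever the replicate mean, cut at about 25% in these data; inconclusive = mean inhibition reaches that limit but some replicates miss it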;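 note: 0% = plate neutral control median and 100% = total signal loss; the record names both 10 and 1 µM as test concentration; the first replicate is given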
RanGTP-Impb inh – inhibitors of RanGTP-importin-beta interaction, primary screen, biochemical, FRET, CFP-Ran, YFP-importin-beta, homogeneous; cell-free CFP-Ran/YFP-importin-beta FRET ratio; inhibition, % (concentration not given with the values); actives 1.1% (n = 300,000); AID 2216;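 active = most replicates above 15%; inconclusive = exactly half above 15%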;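 note: 0% = DMSO wells and 100% = Ran loaded with GDP instead of GTP; wells of about 40 µL received 100 nL stock; the first replicate is given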
UCH37 DUB inh – human UCH37 deubiquitinating enzyme inhibition | inhibition, % (no concentration beside the values) | Q9Y5K5 | AID 588478 | actives 0.33% (n = 330,000) | purified proteasome/UCH37, Ub-AMC cleavage fluorescence;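 active = mean of two replicates above 20%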;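 note: 0% = compound-free wells with enzyme and 100% = wells lacking proteasome; stock transfer was 100 nL into about 20 µL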
Target sequence (Q9Y5K5 whole entry, looked up): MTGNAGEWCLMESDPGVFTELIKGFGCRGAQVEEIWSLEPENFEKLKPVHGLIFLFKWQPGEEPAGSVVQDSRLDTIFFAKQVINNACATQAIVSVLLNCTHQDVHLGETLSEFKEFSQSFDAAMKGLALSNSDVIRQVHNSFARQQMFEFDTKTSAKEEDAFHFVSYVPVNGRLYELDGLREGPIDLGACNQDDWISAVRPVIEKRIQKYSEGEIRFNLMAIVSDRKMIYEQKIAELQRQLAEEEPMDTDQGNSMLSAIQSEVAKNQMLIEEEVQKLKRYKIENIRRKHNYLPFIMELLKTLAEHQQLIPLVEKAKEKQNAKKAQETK
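Test system – human UCH37 enzyme supplied as purified proteasome complex · Incubation – 30 min preincubation with enzyme, 25 min cleavage at room temperature · Detection – AMC fluorescence from Ub-AMC cleavage, excitation 355 nm, emission 460 nm · Benchmarks – no-proteasome wells (full inhibition) and compound-free wells (no inhibition)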
FGF22 binding – shifts melting point of recombinant human FGF22 | Q9HCT0 | recombinant FGF22 thermal shift, SYPRO orange fluorescence; percent of sucrose octasulfate shift, DMSO zero | calls only at 9.99 µM | actives 1.5% (n = 340,000) | AID 651658;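 active = melting point raised past a set limit in the mean and every replicate; inconclusive = no clear call; three in four hits are not shown here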
Target sequence (Q9HCT0 whole entry, looked up): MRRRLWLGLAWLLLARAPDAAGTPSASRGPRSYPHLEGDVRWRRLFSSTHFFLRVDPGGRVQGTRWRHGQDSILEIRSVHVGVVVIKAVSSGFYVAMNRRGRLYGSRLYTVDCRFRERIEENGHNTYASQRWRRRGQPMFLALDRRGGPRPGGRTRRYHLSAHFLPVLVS
Vif TR-FRET – HIV-1 Vif–A3G interaction blockers – biochemical, TR-FRET, GST-Vif 1-94, biotin-A3G peptide, dose response retest, primary screen (AID 1117319); TR-FRET GST-Vif / biotin-A3G peptide binding; higher % means a stronger effect; test concentration not given here; strong numbers were not always called active; inhibition, %; hits with a dose series show IC50 in µM; actives 0.57% (n = 260,000);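 active = above the screen mean plus three standard deviations and confirmed in dose response; inconclusive = results disagree or hit not tested in dose response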;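 note: Vif residues 1-94 fused to GST binding biotinylated APOBEC3G peptide 110-148; 0% = full assay without inhibitor and 100% = GST in place of GST-Vif; retest series ran down from 100 µM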
HNF4A DNA FP – change in binding of human HNF4 alpha to DNA; P41235; actives 0.3% (n = 360,000); activity change, % at 10 µM; HNF4a-FITC DNA binding, fluorescence polarization, 1 h; AID 1224865; in the data active = activity change above about 30%, passing the limit was not always enough;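 note: controls were the assay level and a saturating level of protein; the project sought stronger binding though the title names inhibitors; some compounds called inactive have numbers as strong as hits; positive values seem to mean higher polarization but the record does not say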
Target sequence (P41235 whole entry, looked up): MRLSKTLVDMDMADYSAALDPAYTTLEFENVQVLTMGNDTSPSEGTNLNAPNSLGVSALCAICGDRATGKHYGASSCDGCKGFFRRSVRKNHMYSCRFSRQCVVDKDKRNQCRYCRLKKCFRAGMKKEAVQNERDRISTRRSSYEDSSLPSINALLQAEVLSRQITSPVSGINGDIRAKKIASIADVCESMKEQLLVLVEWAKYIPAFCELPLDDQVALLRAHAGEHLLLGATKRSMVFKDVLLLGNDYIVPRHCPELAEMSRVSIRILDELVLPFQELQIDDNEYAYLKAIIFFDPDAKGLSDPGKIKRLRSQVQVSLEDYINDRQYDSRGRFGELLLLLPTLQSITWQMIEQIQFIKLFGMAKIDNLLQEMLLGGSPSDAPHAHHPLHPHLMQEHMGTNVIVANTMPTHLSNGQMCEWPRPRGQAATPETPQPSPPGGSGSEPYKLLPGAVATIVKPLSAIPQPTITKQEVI
E coli growth – blocks Escherichia coli growth; OD600, 23 h; active compounds read low; OD600 absorbance (no concentration beside the values); actives 0.21% (n = 330,000);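 active = OD600 absorbance below the run mean of sample wells minus 3.6 SD, in any replicate, cut at about 0.56 in these data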;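 note: stock transfer was 300 nL into about 60 µL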
* = called active by the depositor; i = inactive; ? = inconclusive; · = not tested or not shown; & = joins results of further samples. An excerpt (hit frequency here may not be typical).

No.	structure	MLL AF4-AF9 inh	RanGTP-Impb inh	UCH37 DUB inh	FGF22 binding	Vif TR-FRET	HNF4A DNA FP	E coli growth
1	COc1ccc(-n2nnnc2SCC(=O)N2CCOCC2)cc1	-1.9	7.3	2.2	i	2.9%	2.2	0.757
2	CCC[C@H](CN[C@@H](CNC)[C@H](C)CC)NCCc1cc(C(F)(F)F)cc(C(F)(F)F)c1	-18.0	-0.7	4.0	i	·	1.8	·
3	O=S(=O)(O)c1cc2oc(-c3ccccc3)nc2c2ccccc12	-6.8	1.1	-250.2	i	·	2.7	0.698
4	O=C(CN1C(=O)/C(=C/c2ccccc2F)SC1=S)NC1C=CS(=O)(=O)C1 (stereo unspecified)	-8.0	-0.1	7.6	i	-2.1%	-1.4	0.676
5	NS(=O)(=O)c1cccc(NC(=O)CSc2nc3ccccc3c(=O)n2CC2CCCO2)c1 (stereo unspecified)	1.7	·	6.5	i	-4.9%	1.6	0.704
6	O=C1CCC([N+](=O)[O-])C(C2CC=CCC2)N1 (stereo unspecified)	-2.5	0.8	1.1	i	·	-0.9	0.7
7	CCOc1ccc(C(=O)N2CCN=C2SC)cc1OCC	·	?	-0.9	·	-2.3%	1.6	0.736
8	CC(C)c1ccc(N(C(=O)C(F)(F)F)C(C(=O)NC2CCCCC2)c2ccncc2)cc1 (stereo unspecified)	·	-1.7	3.4	·	-0.8%	-1.7	0.71
9	COc1cccc(C(=O)NNC(=O)Cc2csc(N)n2)c1	-2.5	-2.3	3.3	i	·	2.2	0.687
10	N#CCN(C(=O)COC(=O)CCCNC(=O)c1ccc(Cl)cc1)c1ccccc1	-0.5	·	-1.5	i	-19.2%	-1.3	0.673

(continued)
No.	structure	MLL AF4-AF9 inh	RanGTP-Impb inh	UCH37 DUB inh	FGF22 binding	Vif TR-FRET	HNF4A DNA FP	E coli growth
11	N#Cc1cc(C#N)c(N2CCN(c3cccc(Cl)n3)CC2)nc1N	·	?	-14.3	·	-0.7%	-2.2	0.678
12	CC(Oc1ccc(F)cc1)C(=O)Nc1cc(Cl)ccc1-n1cncn1 (stereo unspecified)	-12.3	-0.7	4.2	·	-3.5%	-0.6	0.637
13	CC(C)c1ccc(/C=N/NC(=O)c2nnn(-c3nonc3N)c2CN(C)C2CCCCC2)cc1	-0.9	1.6	·	i	·	4.3	·
14	CN(C)/C=C/C(=O)c1ccc2noc(-c3cccc(F)c3)c2c1	0.4	2.4	13.7	i	-0.2%	-1.2	0.627
15	CC1(C)Cc2c(sc3nc4n(-c5ccccc5)c(=O)c(CCC(=O)O)nn4c(=O)c23)CO1	-4.9	0.6	8.3	i	?	1.0	0.686
16	COc1cc(/C=C/C(=O)OCC(=O)Nc2cc(C)c(C)cc2[N+](=O)[O-])ccc1O	·	0.6	4.1	i	8.0%	3.7	0.683
17	O=C(c1cccnc1Cl)N(Cc1ccccc1)Cc1ccccc1	0.7	4.9	2.3	i	7.2%	0.7	0.666
18	C#CCN(C[C@H]1[C@H](OC(=O)Nc2c(C)noc2C)[C@H](OC(=O)Nc2c(C)noc2C)C[C@@H](C(=O)OC)[C@H]1C(=O)OC)S(=O)(=O)c1ccc(C)cc1	-1.9	·	·	i	1.2%	-0.9	·
19	CC(C)C1Cc2c(sc3[nH]c(=S)n(Cc4ccccc4)c(=O)c23)CO1 (stereo unspecified)	·	6.8	4.7	·	-16.5%	-1.0	0.773
20	COc1ccc(/C=N/N=C2/NC(=O)C(CC(=O)O)S2)cc1OS(=O)(=O)c1ccccc1 (stereo unspecified)	-1.2	-0.5	·	i	-5.6%	3.5	·

Next results:
No.	structure	MLL AF4-AF9 inh	RanGTP-Impb inh	UCH37 DUB inh	FGF22 binding	Vif TR-FRET	HNF4A DNA FP	E coli growth
21	Cc1ccc(OCC(=O)NNC(=S)NC(=O)C2CCCCC2)c(C)c1	·	0.5	2.3	·	-1.3%	4.1	0.705
22	O=C(Nc1cccc(S(=O)(=O)NC2=NCCCCC2)c1)C1COc2ccccc2O1 (stereo unspecified)	-1.2	-2.4	0.5	i	27.6%	-5.3	0.718
23	Cc1noc(C)c1C(=O)N1CCN(Cc2ccc3c(c2)OCO3)CC1	2.3	-8.7	1.2	i	21.4%	1.2	0.65
24	CCOc1ccc(C2N(c3ccc(OC)cc3)C(=O)C3CCCN32)cc1OC (stereo unspecified)	-0.1	5.3	6.0	i	2.4%	-2.6	0.696
25	Cc1cc(Nc2ccccc2)n2nc(C)c(-c3ccccc3)c2n1	-1.5	4.2	-49.2	i	26.8%	0.4	0.632
26	Cc1cc(S(=O)(=O)N2CCN(c3ccc(F)cc3)CC2)ccc1-n1cnnn1	-7.5	-0.9	4.9	i	·	0.1	0.641
27	CC(=O)Nc1ccc(S(=O)(=O)NNC(=O)c2sc(=S)n(C)c2C)cc1	-2.0	4.1	·	i	25.6%	-1.4	·
28	CC(=O)/C=C\c1ccc(OC(=O)c2cccnc2)cc1	-2.7	2.9	3.8	i	·	2.1	0.667
29	Cc1ccc(-c2nn(-c3ccccc3)cc2/C=N/NC(=O)c2ccc(Br)o2)cc1	·	-2.2	·	·	-3.8%&10.5%	-1.5	·
30	Cc1cc(/C=C2/C(=N)N3C(c4ccccc4)=CSC3=NC2=O)c(C)n1-c1ccc(Cl)cc1	2.1	·	-1.2	i	·	2.6	0.666

More records:
No.	structure	MLL AF4-AF9 inh	RanGTP-Impb inh	UCH37 DUB inh	FGF22 binding	Vif TR-FRET	HNF4A DNA FP	E coli growth
31	CC(C)(Nc1ccccc1)C(=O)c1ccccc1	-5.3	-2.2	3.2	i	10.0%	-1.5	0.697
32	N=C(N)SCc1cn2ccccc2n1	·	?	5.6	·	-8.1%	4.0	0.684
33	Cc1cc(C)cc(OCC(=O)N2CCCCCC2)c1	·	?	5.0	·	20.6%	0.1	0.661
34	Cc1cccc2c(N)c3c(nc12)CCCC3 (tested in a mixture with another compound)	-2.3	·	-2.2	i	-1.6%	2.2	0.691
35	C/C(=C\c1ccc2c(c1)OCO2)C(=O)c1c(C)cc(C)[nH]c1=O	-4.1	?	19.1	i	-1.0%	0.2	0.679
36	Cc1ccc(NC(=O)c2c(Cl)n(C)c3ccccc23)cc1	·	-5.5	·	·	27.9%	2.1	·
37	COc1ccc(OC)c(C(=O)CC2OC(=O)c3ccccc32)c1 (stereo unspecified)	·	-1.8	-0.8	·	-4.8%	-1.9	0.732
38	CC(C)c1ccc(C(=O)Nc2ccc(CN3CCOCC3)cc2)cc1	-5.8	4.5	1.8	i	-11.2%	0.6	0.667
39	COc1ccc(-c2nc3ccccc3nc2-c2ccc(OC)c(OC)c2)cc1OC	-3.1	0.8	-69.8	i	·	0.5	0.665
40	Cc1c(NC(=S)NNC(=O)CCC(=O)O)c(=O)n(-c2ccccc2)n1C	-9.4	2.9	0.8	i	5.5%	4.9	0.644

Continuation:
No.	structure	MLL AF4-AF9 inh	RanGTP-Impb inh	UCH37 DUB inh	FGF22 binding	Vif TR-FRET	HNF4A DNA FP	E coli growth
41	CCOc1ccccc1N1CC(C(=O)Nc2ccccc2N2CCCC2)CC1=O (stereo unspecified)	1.2	?	7.4	i	-9.8%	-2.0	0.674
42	O=C(Nc1cc(Cl)ccc1N1CCOCC1)c1ccc2c(c1)OCO2	1.2	·	·	i	·	-8.5	·
43	Cc1ccccc1NS(=O)(=O)c1ccc(Cl)cc1	-1.1	7.3	1.6	i	-4.2%	-2.8	0.672
44	CN(Cc1ccccc1)C(=S)Nc1cccnc1	-4.0	5.3	6.0	i	·	-1.9	0.688
45	COCc1nnc(NS(=O)(=O)c2c(C)cc(C)cc2C)s1	·	-1.6	2.8	·	-2.6%	-1.2	0.744
46	Cc1ccc(C)c2[nH]c(=O)c(CN(Cc3ccco3)C(=O)Nc3ccccc3)cc12	·	3.1	-1.1	·	-7.4%	1.5	0.658
47	O=C1NCCc2c1[nH]c1ccc([N+](=O)[O-])cc21	1.6	3.7	6.8	i	11.5%	1.4	0.656
48	COc1ccc(S(=O)(=O)N2CCC(C(N)=O)CC2)c2ccccc12	·	0.5	3.4	·	8.8%	0.1	0.762
49	CCOc1ccc(-c2c(C(=O)N/N=C/c3ccncc3)nnn2-c2nonc2N)cc1	-0.7	21.5	·	i	·	2.5	·
50	CC(C)(C)c1ccc(C(=O)NC(CC(=O)O)c2ccc(OC3CCCC3)cc2)cc1 (stereo unspecified)	-1.6	1.4	2.8	i	·	0.9	0.62

Next section; it opens with the 2 that closed the last part.
No.	structure	MLL AF4-AF9 inh	RanGTP-Impb inh	UCH37 DUB inh	FGF22 binding	Vif TR-FRET	HNF4A DNA FP	E coli growth
49	CCOc1ccc(-c2c(C(=O)N/N=C/c3ccncc3)nnn2-c2nonc2N)cc1	-0.7	21.5	·	i	·	2.5	·
50	CC(C)(C)c1ccc(C(=O)NC(CC(=O)O)c2ccc(OC3CCCC3)cc2)cc1 (stereo unspecified)	-1.6	1.4	2.8	i	·	0.9	0.62
51	CC1CCN(C(=O)/C=C/c2ccc(C(C)(C)C)cc2)CC1	9.0	2.2	1.7	i	-6.5%	-3.4	·
52	COc1ccc(-n2c(SCC(=O)Nc3cc(C)on3)nc3c(c2=O)SCC3)cc1OC	1.7	1.9	4.8	i	-0.3%	4.4	0.71
53	COc1ccc(NC(=O)c2ccc3[nH]c(=O)c(=O)[nH]c3c2)c(OC)c1	3.0	-6.2	8.2	i	·	-3.7	0.675
54	Cn1c(=O)c(C(=O)NCCc2ccccc2)c(O)c2ccccc21	-1.8	0.3	3.5	i	2.8%	-0.5	0.692
55	O=C(COC(=O)c1ccc[nH]c1=O)NCCC1=CCCCC1	-3.6	·	9.5	i	-5.6%	3.1	0.716
56	CC(C)CN(C(=O)COC(=O)/C=C/c1ccc(Cl)c(Cl)c1)c1c(N)n(Cc2ccccc2)c(=O)[nH]c1=O	-2.2	·	0.2	i	-1.3%	7.7	0.728
57	CN1CC(=O)N(CC(=O)NCCc2ccc(F)cc2)c2ccccc2C1=O	·	·	1.7	·	-5.1%	-0.5	0.713
58	COc1ccc(C(NC(=O)C2CCN(C/C=C/c3ccc(OC(C)=O)c(OC)c3)CC2)c2ccccn2)cc1 (stereo unspecified)	-1.3	·	·	i	·	0.7	·
59	COc1ccccc1C(=O)NCCC(=O)N(C)Cc1cccnc1	2.8	·	2.5	i	-10.1%	-0.1	0.695
60	O=C(CC1CCCC1)N1CCN(S(=O)(=O)c2ccc(F)cc2)CC1	-25.5	·	3.3	i	9.8%	4.8	0.69

(list continues)
No.	structure	MLL AF4-AF9 inh	RanGTP-Impb inh	UCH37 DUB inh	FGF22 binding	Vif TR-FRET	HNF4A DNA FP	E coli growth
61	N#CC1=C(S)N(c2ccccc2)C(c2ccco2)NC1=O (stereo unspecified)	-4.7	-1.4	4.3	i	·	-0.9	0.704
62	O=C(CC[C@H]1O[C@@H](n2cnc3c(NC(=O)c4ccccc4)ncnc32)[C@H](O)[C@@H]1O)NCC(F)(F)F	-1.6	·	·	i	·	-2.5	·
63	CCc1cc2c(NC3CCCC3)ncnc2s1	1.0	1.7	5.4	i	5.5%	2.2	0.685
64	O=C(CCCN1C(=O)/C(=C/c2ccccc2Cl)SC1=S)NCCCN1CCOCC1	13.7	-0.4	9.1	i	3.6%	0.8	0.701
65	CCCCNC(=O)CSc1ccc(S(=O)(=O)N2CCOCC2)cn1	-0.1	·	2.1	i	6.9%	-1.7	0.686
